Screens from PubChem BioAssay.
HSD17B inh – HSD17B dehydrogenase inhibition | Q99714 | recombinant HSD17B10, NADH fluorescence kinetic; many of its hits are not listed in these tables | Potency, µM (series often up to 57.1 µM), without a hit: at the top dose activity change, negative = inhibition, most hits filed as inhibitors | hit rate 7.6% among 75,000 | AID 893; active = well fitted inhibition curve with a large enough effect; inconclusive = small, poorly fitted or top-dose-only effect; inactive = no such curve, though single readings can be large or run the other way;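 note: the protocol describes HADH2 (HSD17B10) and not the HSD17B4 of the title; nearly all actives have a fitted effect of over 70% in size; most hits overshoot -100% by far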
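20 nM HADH2, pH 9.0 Tris/Tween; cpd preinc 15 min RT; start w/ 1 mM NAD+ + 90 uM b-hydroxybutyryl-CoA; kinetic fluor ex360/em450 q30s x 4 min; delta last-first.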
Numbers without * were called inactive; ? = inconclusive; [ ] = another dose, or the depositor's remark. % is set by controls: 0 for no effect and ±100 for the full control effect; potency is the fitted concentration of half-maximal effect.

SMILES	HSD17B inh
CN(Cc1ccccc1)c1oc(COc2ccccc2F)nc1C#N	-5%
CCOc1ccc(Nc2nc3c(c(=O)[nH]2)CCCC3)cc1	-2%
COCC(=O)Nc1ccccc1C(=O)Nc1ccc(OC)cc1	8%
C=CCNC(=O)C(C#N)c1nc2ccccc2nc1N1CCN(Cc2ccccc2)CC1 (stereo unspecified)	-14%
Clc1ccccc1CSc1ncccn1	1%
CCOC(=O)C1CCN(C(=O)CCCOc2ccccc2)CC1	12%
Cc1ccccc1-c1ccc2ncnc(NCCN3CCOCC3)c2c1	?
COc1cc(C2NC(=O)NC(c3ccccc3)=C2C(C)=O)ccc1OCC#N (stereo unspecified)	1%
CCCC(=O)Nc1ccccc1-c1nnc(SC)[nH]c1=O	7%
Cn1c(C(=O)N2CCN(c3ccc(Cl)cc3)CC2)cc2c(=O)[nH]c3ccccc3c21	-17%
Cc1cc(=O)oc(C)c1C(=O)O	5%
Cc1cc(NCCCn2ccnc2)n2ncc(-c3ccccc3)c2n1	?
O=C(c1ccc(-n2c(=O)c(=O)[nH]c3ccccc32)cc1)N1CCCN(Cc2ccccc2)CC1	-4%
CCn1c(C(=O)NC(C)c2ccc3c(c2)OCCO3)cc2sccc21 (stereo unspecified)	5%
Cc1noc(C)c1CSc1ccc2ccccc2n1	4%
COc1ccc2c(c1)c(C(=O)CNc1nc(C)cs1)c(C)n2C	16µM*
CCCOC(=O)NC1C(NC(=O)OCCC)N(C)C(=O)N1C (stereo unspecified)	2%
CCC(C(=O)N1CCN(S(C)(=O)=O)CC1)c1ccccc1 (stereo unspecified)	-4%
O=c1cc(-c2cc(O)c(O)c(O)c2)oc2cc(O)cc(O)c12	?
CCc1nnc(NC(=O)CCC(=O)NC2CCCCC2)s1	2%
CCCCCC(=O)Nc1ccc(N2CCN(S(C)(=O)=O)CC2)cc1	0%
Cc1cc(C)c2c(n1)nn1c(N3CCOCC3)cc(C)nc21	13µM*
CC(C)CC(=O)NCC(C)NC(=O)CC(C)C (stereo unspecified)	4%
O=C(c1ccc(Nc2cccc(C(F)(F)F)c2)nc1)N1CCCC1	?
Cc1ccc(CNS(=O)(=O)c2ccc3oc(C(=O)O)c(C)c3c2)cc1	-3%
Cc1ccccc1OCc1nnc2c3cnn(C)c3ncn12	-3%
CC(=O)c1c(C)[nH]c(C)c1C(C)=O	-3%
C=CCSc1nnc(NC(=O)c2cccc(S(=O)(=O)N3CCOCC3)c2)s1	-7%
COc1cccc(-n2cc3c(c2-c2ccccc2)c(=O)n(C)c(=O)n3C)c1	-19%
Cc1ccc2ccccc2c1CSc1nc(N)nc2c1ncn2CC(C)C	-7%[11.4 µM]
Brc1cc(Oc2cc(Br)c(Br)c(Br)c2Br)c(Br)c(Br)c1Br	-8%
O=C(c1ccco1)N1CCN(CC(=O)N2c3ccccc3CCc3ccccc32)CC1	0%
CCOC(=O)C(C)C(C)=O (stereo unspecified)	-4%
Cc1noc(C)c1C(=O)N1CCC2(CCCN(C(=O)Nc3cccc(C#N)c3)C2)CC1	0%
CCn1ccc(C(=O)Nc2ccc(N(C)C(C)=O)cc2)n1	12%
CNc1nc(N)c(C(=O)C(C)(C)C)s1	-4%
Cc1ccc(-c2noc(CN3C(C)CCCC3C)n2)cc1 (stereo unspecified)	-1%
Cn1c(SCC(=O)NC2CCCC2)nnc1-c1ccc(S(=O)(=O)N2CCOCC2)cc1	32µM*
COCC(=O)Nc1nc(-c2ccccc2)c(C)s1	-2%
O=C(CN(Cc1cccs1)C(=O)CNS(=O)(=O)c1ccccc1)NCc1ccco1	-9%
Cc1oc2c(C)c3oc(=O)c4c(c3cc2c1C)CCCC4	?
Clc1ccc(CN2C3=NCCCN3c3ccccc32)cc1	8%
COc1ccc(C(=O)N2CCN(C(=O)CC(C)C)CC2)cc1OC	10%
CCOC(=O)c1c(C)n(CC(COC(C)=O)OC(C)=O)c2ccc(OC(C)=O)cc12 (stereo unspecified)	-7%
Cc1nnc(SCc2nnc(-c3ccccc3)o2)n(N)c1=O	1%
C[C@@H](C1=C(CCN(C)C)Cc2ccccc21)c1ccccn1	1%
CN1C(=O)c2oc3ccccc3c(=O)c2C1c1ccccn1 (stereo unspecified)	9%
CCn1c(Cn2nnc(-c3ccccc3)n2)nnc1SCC(=O)Nc1ccccc1	7%
COc1ccc(C(C#N)N2CCCCCC2)cc1OC (stereo unspecified)	6%
Cc1noc(C)c1CSc1nc2ccccc2[nH]1	9%

Following part
SMILES	HSD17B inh
O=S(=O)(NCc1csc(-c2cccnc2)n1)c1ccc2c(c1)OCCO2	-2%
COc1ccc(N2CC(C)Cn3c2nc2c3c(=O)n(CCN3CCOCC3)c(=O)n2C)cc1 (stereo unspecified)	10%
CCC(C)NC(=O)c1c(N)n(/N=C/c2cccnc2)c2nc3ccccc3nc12 (stereo unspecified)	?
CCN(CC)c1ccc(NC(=O)C(C)C)cc1	5%
COc1cc(C2CC(=O)N3CN(Cc4ccco4)CSC3=C2C#N)ccc1OCc1ccccc1 (stereo unspecified)	?
CC1CCCCC1NC(=O)CSc1nnnn1-c1ccccc1 (stereo unspecified)	3%
O=C(Cn1c(=O)[nH]c2ccsc2c1=O)NC1CCCCCC1	1%
CC(C)n1c(C(O)c2ccccc2)nc2ccccc21 (stereo unspecified)	12%
CCOc1ccc(/C(O)=C2/C(=O)C(=O)N(CCOCCO)C2c2ccccn2)cc1 (stereo unspecified)	-4%
O=c1[nH]c(C(F)(F)F)nc2ccccc12	15%
O=C(CSc1nnc(Cc2ccccc2)o1)N1CCOCC1	3%
COc1ccc(-c2ccc(-c3noc(-c4cccs4)n3)c(OC)n2)cc1	25µM*
COc1ccc(OC)c(NC(=O)CN2C(=O)C3(OCCCO3)c3ccccc32)c1	-3%
CCC(CC)C(=O)NCCc1cc2ccc(C)c(C)c2[nH]c1=O	9%
COC(=O)c1nc(NC(C)=O)n[nH]1	-2%
COc1ccc(C2=NOC(C(=O)NCCCN3CCOCC3)C2)cc1 (stereo unspecified)	7%
Cc1ccnc(NC(=O)c2c(O)c3ccccc3n(C)c2=O)c1	6%
O=c1[nH]c(SCC2CCCCO2)nc2ccccc12 (stereo unspecified)	-18%
S=C(Nc1ccccc1)Nc1ccccc1C#Cc1ccccc1	-16%
Cn1c(=O)cc(NCCc2ccccc2)[nH]c1=O	4%
COC(=O)Cn1c2ccccc2c2nc(C)sc21	-2%
CCC(NC(=O)NCc1cccnc1)(C(F)(F)F)C(F)(F)F	8%
O=C(NC1c2ccccc2-c2ccccc21)c1ccco1	-3%
CC(=O)c1c(C(C)=O)c(C)n(-c2nc(-c3ccccc3)c(C)s2)c1C	2%
CC(C)N1CCN(c2ccncc2S(=O)(=O)N2CCCCC2)CC1	5%[11.4 µM]
CCc1ccc(NC(=O)C2CC(=O)N(C(C)C)C2)cc1 (stereo unspecified)	3%
COP(C)(=O)c1c(C)nn(-c2ccccc2)c1C (stereo unspecified)	17%
CCSc1nc2c(c(=O)[nH]1)C(c1ccccn1)C1=C(CC(C)(C)CC1=O)N2 (stereo unspecified)	32µM*
CCC(=O)N1CCc2cc(S(=O)(=O)N(CC)c3cccc(C)c3)ccc21	9%
COc1ccc(-c2nnnn2CCc2ccccc2)cc1	-5%
CC1CCCCN1CCNC(=O)Cn1nc(-c2ccccc2)ccc1=O (stereo unspecified)	4%
Cc1nonc1NC(=O)OCCN1CCOC1=O	0%
COc1ccc(NC(=O)CN2CCCCC2)cc1	6%
COc1ccc(Br)cc1C(=O)Nc1cccc(NC(=O)c2ccco2)c1	?
CC(=O)c1cccc(NC(=O)CN(c2ccc(F)cc2)S(C)(=O)=O)c1	-6%
O=C(Nc1ccccc1)N(Cc1ccc2c(c1)OCO2)Cc1nc2ccccc2c(=O)[nH]1	-15%
Cc1ccc(-c2nc3s/c(=C\c4ccco4)c(=O)n3n2)cc1	?
CCCn1c(N2CCN(CC(=O)NCc3cccs3)CC2)nc2ccccc21	3%
CCSC[C@@H](N)C(=O)O	1%[11.4 µM]
COC(=O)c1[nH]cnc1C(=O)c1ccccc1	-1%
N[C@@H](C(=O)O)c1cc(O)ccc1Cl	1%
CCOC(=O)C1CCN(C(=O)Nc2ccc(NC(=O)C3CCN(C(=O)OCC)CC3)cc2)CC1	9%
N#CC1=C(N)N(c2ccccc2C#N)C2=C(C(=O)CCC2)C1c1ccsc1 (stereo unspecified)	1%
O=C(Nc1ccn(C2CC(OC(=O)c3ccccc3)C(CO)O2)c(=O)n1)c1ccccc1 (stereo unspecified)	-26%
COc1ccc(C2CC(c3ccccc3)n3nc(NC(=O)c4cccs4)nc3N2)cc1 (stereo unspecified)	-17%
O=C(Cn1cnc2c(nnn2-c2ccc(F)cc2)c1=O)N1CCCC1	1%
CCN(CC)S(=O)(=O)c1cccc(C(=O)NC(C(=O)Nc2nnc(C3CC3)s2)C(C)C)c1 (stereo unspecified)	5%
COc1cc(NC(=O)Cn2ncc3c2-c2ccccc2OC3)cc(OC)c1OC	-3%
O=C(NCCN1CCN(c2ccccc2)CC1)C1CCN(S(=O)(=O)c2cccs2)CC1	-1%
CCOC(=O)c1c(C)[nH]c(C(=O)COC(=O)C2CC2C)c1C (stereo unspecified)	5%

(next part)
SMILES	HSD17B inh
CCCS(=O)(=O)N1CCC(C(=O)NCCc2ccccc2)CC1	4%
Cc1ccnc(SCCn2c(N3CCOCC3)nc3c2c(=O)[nH]c(=O)n3C)n1	14%
O=C(Nc1ccc(N2CCOCC2)cc1)Nc1cnsn1	-3%
O=C(CSc1nnc(Cc2cccs2)n1-c1ccccc1)Nc1ccc2c(c1)OCCO2	-4%
COc1ccccc1C(=O)OCC(=O)Nc1ccc(OC(F)F)cc1	7%
Cc1noc(C)c1-c1cc(NCc2ccccc2)ncn1	8%
Cc1cc(=O)oc2cc(OC3C=CC(C#CC(C)(C)C)OC3CO)ccc12 (stereo unspecified)	?
CCOC(=O)CSc1nnc(-c2nnc(SCC(=O)OCC)n2CC)n1CC	0%
CCOC(=O)C(NC(C)=O)(Nc1cccc(F)c1)C(F)(F)F (stereo unspecified)	-12%
CCOc1cc(C)nc(N2CCCC(C(=O)NCc3ccccc3F)C2)n1 (stereo unspecified)	1%

Two of these compounds in a different format:
CCCS(=O)(=O)N1CCC(C(=O)NCCc2ccccc2)CC1
  HSD17B inh = 4%
O=C(Nc1ccc(N2CCOCC2)cc1)Nc1cnsn1
  HSD17B inh = -3%

(continued)
SMILES	HSD17B inh
CCOC(=O)CCCCNCc1ccccc1	8%
Cn1cccc1Cc1nnc(SCC(=O)NCc2ccc3c(c2)OCO3)n1CCc1ccccc1	-15%
C=CCn1c(-c2ccc(Cl)cc2)c[nH]c1=S	-9%
Nc1nc(NCc2ccco2)nn1-c1ccccc1	4%
O=C(O)CCN(CCC(=O)O)c1ccccc1	7%
Cc1ccc(C(=O)N2CCN(S(C)(=O)=O)C2)cc1	2%
C=C(C)CSc1nnc(-c2cccc(S(=O)(=O)N(C)C)c2)n1-c1cc(OC)ccc1OC	-5%
CN1CCN(S(=O)(=O)c2ccc(-c3noc(C4CCN(S(C)(=O)=O)CC4)n3)cc2)CC1	14%
O=C(CC1N=C2c3ccccc3N=C(SCc3ccc(Cl)cc3)N2C1=O)NCc1ccco1 (stereo unspecified)	25µM*
CCOc1ccc(N(CC(=O)Nc2cccc(F)c2)S(=O)(=O)c2c(C)noc2C)cc1	3%

Copied from above (17 entries):
SMILES	HSD17B inh
Cc1ccnc(SCCn2c(N3CCOCC3)nc3c2c(=O)[nH]c(=O)n3C)n1	14%
O=C(Nc1ccc(N2CCOCC2)cc1)Nc1cnsn1	-3%
O=C(CSc1nnc(Cc2cccs2)n1-c1ccccc1)Nc1ccc2c(c1)OCCO2	-4%
COc1ccccc1C(=O)OCC(=O)Nc1ccc(OC(F)F)cc1	7%
Cc1noc(C)c1-c1cc(NCc2ccccc2)ncn1	8%
Cc1cc(=O)oc2cc(OC3C=CC(C#CC(C)(C)C)OC3CO)ccc12 (stereo unspecified)	?
CCOC(=O)CSc1nnc(-c2nnc(SCC(=O)OCC)n2CC)n1CC	0%
CCOC(=O)C(NC(C)=O)(Nc1cccc(F)c1)C(F)(F)F (stereo unspecified)	-12%
CCOc1cc(C)nc(N2CCCC(C(=O)NCc3ccccc3F)C2)n1 (stereo unspecified)	1%
CCOC(=O)CCCCNCc1ccccc1	8%
Cn1cccc1Cc1nnc(SCC(=O)NCc2ccc3c(c2)OCO3)n1CCc1ccccc1	-15%
C=CCn1c(-c2ccc(Cl)cc2)c[nH]c1=S	-9%
Nc1nc(NCc2ccco2)nn1-c1ccccc1	4%
O=C(O)CCN(CCC(=O)O)c1ccccc1	7%
Cc1ccc(C(=O)N2CCN(S(C)(=O)=O)C2)cc1	2%
C=C(C)CSc1nnc(-c2cccc(S(=O)(=O)N(C)C)c2)n1-c1cc(OC)ccc1OC	-5%
CN1CCN(S(=O)(=O)c2ccc(-c3noc(C4CCN(S(C)(=O)=O)CC4)n3)cc2)CC1	14%

The listing continues.
SMILES	HSD17B inh
N#C/C(=C1\CCCN1)c1nc2ccccc2c(=O)[nH]1	7%
CC(Oc1ccc(Cl)cc1Cl)C(=O)Nc1ccc2oc(-c3ccncc3)nc2c1 (stereo unspecified)	13µM*
O=C(Nc1nnc(C(F)(F)F)s1)c1cccnc1	4%
CC(=O)NCCN=C(C)c1sc2ccccc2c1O	-5%
COc1ccc(-c2c(C)n([O-])c(C)c(C)[n+]2=O)cc1OC	7%
CCOC(=O)C1CCN(Cc2ccc(C(=O)OC)cc2)CC1	-4%
Cc1cc(C)n2cc(CSc3nnnn3-c3ccc(Cl)cc3)nc2n1	-17%
CN(C(=O)Cn1c(=O)n(CCCCC(=O)NC2CCCC2)c(=O)c2ccccc21)C1CCCCC1	5%

A portion of the library (hit frequency here may not be typical).
